Screening data from PubChem.
HCMV NEC inh – inhibitors of HCMV UL50-UL53 interaction, biochemical, HTRF; actives 0.15% (n = 190,000); normalized percent inhibition; inhibition, % (no concentration beside the values);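 active means both replicates at 50% or more, plus weaker picks with an unusually low signal ratio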;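 further: stock transfer was 100 nL into about 20 µL; 0% = negative control wells and 100% = wells with untagged competitor protein; inactives centre near -12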
GIV-Gai inh – inhibitors of GIV peptide binding to Galpha-i3, primary screen, biochemical, fluorescence polarization, FITC-GIV GBA peptide, rat Galphai3; Guanine nucleotide-binding protein G(i) subunit alpha-3 (Rattus norvegicus), P08753; 90 min; active compounds read low; scaled: aluminum fluoride 0%, vehicle 100%; percent of control (FP), % (test concentration not listed); actives 0.42% (n = 210,000); AID 1224905, 2016;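 active means replicate mean at 85% of control or lower, very high polarization wells dropped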;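 further: lower values mean more displacement of the GIV peptide from Galpha-i3; wells of about 15 µL received 100 nL stock; the first replicate is given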
Target sequence (P08753 whole entry, looked up): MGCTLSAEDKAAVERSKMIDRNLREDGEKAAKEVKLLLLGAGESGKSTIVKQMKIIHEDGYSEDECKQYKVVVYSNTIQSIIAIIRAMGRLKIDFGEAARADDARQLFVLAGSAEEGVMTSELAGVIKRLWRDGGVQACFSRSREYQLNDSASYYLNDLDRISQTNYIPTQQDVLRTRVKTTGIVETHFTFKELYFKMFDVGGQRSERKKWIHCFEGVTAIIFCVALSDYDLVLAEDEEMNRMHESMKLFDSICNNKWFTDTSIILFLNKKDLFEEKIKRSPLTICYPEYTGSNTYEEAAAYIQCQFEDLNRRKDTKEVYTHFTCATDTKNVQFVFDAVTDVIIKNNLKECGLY
Sa growth 42C – S. aureus growth inhibition at 42 and 30 °C, primary screen, LtaS inhibitor project, RN4220, two temperatures; OD600, 20 h, 42 °C; active compounds read low; relative growth, % (test concentration not listed); actives 0.53% (n = 170,000);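 active means growth at 42 °C up to 50% and 20 or more points under that at 30 °C, or under 10% at both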;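 further: 300 nL library stock went into each well; scaled to the means of positive and negative controls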
Sa growth 42C second temp – recorded beside Sa growth 42C, whose call it bears; relative growth, %; measured here: growth at 30 °C;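 optical density after 20 h as mean of two plates; 100% = untreated growth and lower means inhibition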
The depositor's hits bear a star; · = not tested or not shown; & = joins results of further samples.

canonical_smiles	HCMV NEC inh	GIV-Gai inh	Sa growth 42C	Sa growth 42C second temp
CCOC(=O)N1CCc2c(sc(NC(=O)c3ccc(S(=O)(=O)N(CC)CC)cc3)c2C(N)=O)C1	1	99	94	74
CCOc1ccc(N(Cc2nc3nc(C)cc(=O)n3[nH]2)C(=O)C(C)(C)C)cc1	9	106	·	·
CCN(CC)C(=O)c1cc(-c2ccc(Br)cc2)nc2ccccc12	-30	105	·	·
COc1ccc(-c2c(C)c3cc(Cl)c(O)cc3oc2=O)cc1OC	-40	·	90	86
CC(NCc1ccccc1)C(=O)Nc1ccccc1 (stereo not drawn)	-9	·	97	90
Cc1cc(N2CCN(c3ccccc3F)CC2)n2cnnc2n1	-2	101	101	88
CC(=O)c1cccc(NC(=O)c2nc3ccccc3n(C)c2=O)c1	-110	107	88	95
O=C1NC(C(=O)O)Cc2ccccc21 (stereo not drawn)	-6	·	110	89
CCOC(=O)C1=C(C)Nc2nnnn2C1c1cccnc1 (stereo not drawn)	-7	103	·	·
CCn1nccc1C1CCCN1S(=O)(=O)c1cc(C)c(C)cc1C (stereo not drawn)	-28	101	·	·
COc1ccccc1OCC(=O)N1CCC(c2nc3ccccc3o2)CC1	-10	104	105	58
CC1CN(C2=NCCN2S(=O)(=O)c2cc(C(F)(F)F)cc(C(F)(F)F)c2)CC(C)O1 (stereo not drawn)	-3	98	89	91
CC(C)NC[C@H](O)COc1ccc(CC(N)=O)cc1	-3&-5&-14	114	·	·
CCOC(=O)C1CCCN(C(=O)COc2ccc(N(C)S(=O)(=O)c3ccc(F)cc3)cc2)C1 (stereo not drawn)	-5	·	109	93
CN(C)S(=O)(=O)c1ccc(C(=O)NCc2n[nH]c(=O)c3ccccc23)cc1	-3	110	102	95
Cc1ccc(C)c(OCc2nc3ccccc3n2C)c1	-31	104	100	80
Clc1cccc(N2CCN(c3nn4cnnc4c4ccccc34)CC2)c1	-16	102	·	·
CC1=C(C(=O)Nc2ccc(Br)cn2)C(c2ccc3c(c2)OCO3)C2=C(CCCC2=O)N1 (stereo not drawn)	-24	102	·	·
CCN(CC(=O)Nc1ccccc1)c1ccccc1	-2	101	100	97
O=C(O)CSc1nc2ccccc2n1-c1ccccc1	-10	106	·	·
Cc1cc(C(=O)COC(=O)c2cc(S(C)(=O)=O)ccc2Cl)c(C)n1C	7	·	112	90
CCN=C1S/C(=C/c2sccc2C)C(=O)N1CC	-17	·	109	77
CC(C)CNC(=O)C1CCCN(c2ccnc(-c3ccc(F)cc3)n2)C1 (stereo not drawn)	-30	109	·	·
CN[C@H](CC(=O)O)C(=O)O	-30	102	·	·
COc1cc(C=C2C(=O)NC(=O)NC2=O)cc(Br)c1OCC(C)C	87*	105	·	·
O=C(NCC1COc2ccccc2O1)c1ccc(Cl)cc1 (stereo not drawn)	-9	101	75	83
CCOc1ccc(NC(=O)c2ccc(SC)cc2OC)cc1	-1	109	126	121
CCOCCCNC(=O)Cn1ncc2c([nH]c3ccccc32)c1=O	·	104	108	96
CCCCc1c(COC)nc(SC)[nH]c1=O	-4	104	108	83
CC12CCC3(C)OCC(COC(=O)NS(=O)(=O)c4ccccc4)(CO1)N23 (stereo not drawn)	-17	103	94	79
CC(C)(C)S(=O)(=O)/C(C#N)=C/c1ccc(F)c(Cl)c1	6	102	99	81
Cc1cccc(C)c1OCCCn1ccnc1	-4	98	84	91
O=C1S/C(=C\c2ccc(N3CCOCC3)o2)C(=O)N1c1ccccc1	·	-42*	74	77
Cc1nnc(-c2ccc(-c3ccccc3)cc2)o1	21	·	92	99
Cc1ccc2nc(NC(=O)C3CCCN(S(=O)(=O)c4ccc5c(c4)oc(=O)n5C)C3)sc2c1 (stereo not drawn)	·	107	83	87
Cc1nn(CCC(=O)N2CCN(c3ccccc3F)CC2)c(C)c1S(=O)(=O)N1CCCC1	·	100	106	102
O=C(NN1CC(=O)N(CCc2ccccc2)C1=O)c1cccnc1	4	102	83	81
NC(=O)c1ccc(-n2ccnc2)cc1	16	105	·	·
Cc1cc(C)c(S(=O)(=O)Nc2ccc(N3CCN(C4CCCCC4)CC3)cc2C(=O)O)cc1C	-3	97	·	·
CCOc1ccc(CNC(=O)C2CCCN(c3nnc(-n4cccc4)s3)C2)cc1 (stereo not drawn)	-22	101	100	79
Cc1cccc(-c2nnc(SCC(=O)NC3CCCCC3)o2)c1	1	102	100	83
CC(=O)N(C(C)=O)N1C(=O)c2cccc3c(N4CCOCC4)ccc(c23)C1=O	-97	165	81	83
COC(=O)c1cc(Cl)c(NC(=O)c2ccco2)cc1OC	-10	107	98	91
COC(=O)C1Cc2ccccc2CN1Cn1c(SC)nc2ccccc21 (stereo not drawn)	-32	·	83	91
COc1cc(OC)c(NC(=O)c2ccc(CN3C(=O)CCn4nccc43)cc2)cc1Cl	7	104	·	·
CCCCn1c(=O)[nH]c(=O)c2c1nc(CN1CCN(S(=O)(=O)c3ccccc3)CC1)n2CC	6	·	110	99
COc1ccc(NC(=O)CCCn2c(=O)c3sccc3n(CC(=O)c3ccccc3)c2=O)cc1	-8	101	103	86
O=C(O)CCn1cc(C(=O)O)c(-c2ccccc2)n1	-7	·	90	96
O=C(NCc1ccco1)c1ccc(S(=O)(=O)N2CCCc3ccccc32)cc1	-14	100	102	87
COc1ccc(C(CC(=O)O)c2ccc(OC)c(OC)c2)cc1OC	-1	104	96	88
Cc1ccc(NC(=O)c2cc(-c3ccc(Br)s3)nc3ccccc23)cc1F	-65	107	108	89
COc1ccccc1N1CCN(S(=O)(=O)c2ccc(S(=O)(=O)NC3CCCC3)cc2)CC1	-15	104	114	95
COc1ccc2c(Cl)c(-c3nnco3)sc2c1	-4	·	119	105
Cc1ccc(C2=NN(C(=O)CCC(=O)O)C(c3ccc(Br)cc3)C2)cc1 (stereo not drawn)	-33	104	·	·
O=C(O)COCC(=O)NC1Cc2ccccc2C1	-12	94	91	81
CCOc1ccc(CNC(=O)c2cc(=O)[nH]c3ccc(S(=O)(=O)N4CCCC4)cc23)cc1	·	100	110	90

Other entries follow:
canonical_smiles	HCMV NEC inh	GIV-Gai inh	Sa growth 42C	Sa growth 42C second temp
Cc1[nH]c(-c2ccc(F)cc2)cc1C(=O)NC1CCCC1	9	102	101	100
O=C(NCC(c1cccnc1)N1CCOCC1)C1CCCCC1 (stereo not drawn)	·	102	104	93
CN(Cc1ccccc1)C(=O)c1nn(C)c2c1CSc1ccc(F)cc1-2	-25	99	·	·
O=C(Sc1ccc(Cl)cc1)c1cnc2n(c1=O)CCS2	21	97	80	27
Cc1ccnc(NC(=O)c2sc3cc(Cl)ccc3c2Cl)c1	0	·	108	93
CC(C)CCN1C(=O)c2ccc(-c3nc4ccccc4c(=O)o3)cc2C1=O	-8	106	103	89
COc1ccc(CNC(=O)CSc2ncc3c(n2)-c2ccc(Cl)cc2N(Cc2ccccc2)S3(=O)=O)cc1	·	107	110	90
CCn1c(=N)n(CC(=O)c2ccc(-c3ccccc3)cc2)c2ccccc21	1	109	24	32
CC(C)(C)C(=O)OCC(=O)c1cc(C(F)(F)F)cc(C(F)(F)F)c1	-3	108	99	95
O=C(Cn1nc(-c2ccco2)ccc1=O)Nc1ccccc1Cl	·	107	94	86
O=S(=O)(c1ccc(Cl)c2ccccc12)N1CCCC1	-11	96	114	93
CC(C)CN(C(=O)CSc1nc2ccccc2[nH]1)c1c(N)n(CC(C)C)c(=O)[nH]c1=O	-7	·	102	86
CCN1/C(=C2\C(=O)N(c3ccccc3)N=C2C)C=Cc2ccccc21	·	94	98	93
COCc1c(Br)c(C)nc2sc3c(=O)[nH]nnc3c12	-21&-27	107&108	91	76
COc1cccc(C2=NN(S(C)(=O)=O)C(c3cn(-c4ccccc4)nc3-c3ccc(C)cc3)C2)c1 (stereo not drawn)	-25	136	·	·
Cc1cc(C)nc(Nc2nc(=O)c3ccccc3s2)n1	-9	103	89	89
CCCC(=O)N1CCc2c(c(C(=O)NCc3ccccc3)nn2C)C1	-17	104	·	·
COc1ccc(NC(=O)NCC2CCN(Cc3ccccc3F)CC2)c(OC)c1	2	103	92	87
O=C(c1ccc(Cl)cc1)N1CCCc2ccccc21	-11	·	85	101
COc1ccc(N2CCN(C(=O)c3cccnc3Nc3ccccc3F)CC2)cc1	-5	·	84	90
Cc1ccccc1NC(=O)CC(Cc1ccccc1)C1CCOC(C)(C)C1 (stereo not drawn)	-22	98	93	78
CC1=C(C(=O)OC2CCCCCC2)C(c2cccc(F)c2F)CC(=O)N1 (stereo not drawn)	-1	110	95	95
Clc1cnc(Cl)c(Cl)c1	10	108	99	97
COc1ccc(C(=O)N2CCN(c3ncnc4cc(-c5ccccc5)sc34)CC2)cc1OC	-3	103	96	88

15 structures already listed, sorted by SMILES length, high to low:
canonical_smiles	HCMV NEC inh	GIV-Gai inh	Sa growth 42C	Sa growth 42C second temp
COc1ccc(CNC(=O)CSc2ncc3c(n2)-c2ccc(Cl)cc2N(Cc2ccccc2)S3(=O)=O)cc1	·	107	110	90
COc1cccc(C2=NN(S(C)(=O)=O)C(c3cn(-c4ccccc4)nc3-c3ccc(C)cc3)C2)c1 (stereo not drawn)	-25	136	·	·
CC(C)CN(C(=O)CSc1nc2ccccc2[nH]1)c1c(N)n(CC(C)C)c(=O)[nH]c1=O	-7	·	102	86
COc1ccc(C(=O)N2CCN(c3ncnc4cc(-c5ccccc5)sc34)CC2)cc1OC	-3	103	96	88
CC(C)(C)C(=O)OCC(=O)c1cc(C(F)(F)F)cc(C(F)(F)F)c1	-3	108	99	95
CCn1c(=N)n(CC(=O)c2ccc(-c3ccccc3)cc2)c2ccccc21	1	109	24	32
COc1ccc(N2CCN(C(=O)c3cccnc3Nc3ccccc3F)CC2)cc1	-5	·	84	90
COc1ccc(NC(=O)NCC2CCN(Cc3ccccc3F)CC2)c(OC)c1	2	103	92	87
Cc1ccccc1NC(=O)CC(Cc1ccccc1)C1CCOC(C)(C)C1 (stereo not drawn)	-22	98	93	78
CCCC(=O)N1CCc2c(c(C(=O)NCc3ccccc3)nn2C)C1	-17	104	·	·
O=C(Cn1nc(-c2ccco2)ccc1=O)Nc1ccccc1Cl	·	107	94	86
COCc1c(Br)c(C)nc2sc3c(=O)[nH]nnc3c12	-21&-27	107&108	91	76
O=S(=O)(c1ccc(Cl)c2ccccc12)N1CCCC1	-11	96	114	93
Cc1cc(C)nc(Nc2nc(=O)c3ccccc3s2)n1	-9	103	89	89
Clc1cnc(Cl)c(Cl)c1	10	108	99	97

Next results follow:
canonical_smiles	HCMV NEC inh	GIV-Gai inh	Sa growth 42C	Sa growth 42C second temp
CCOc1ccc(C(=O)Nc2sc3c(c2C(N)=O)CCC3)cc1	-12	·	98	86
O=C(CN1c2cccc3cccc(c23)S1(=O)=O)N1CCCCCC1	-37	·	104	100
CN(C)c1ccc(C(=S)N2CCNCC2)cc1	-24	106	109	84
Cn1c(CN2CCC(C(N)=O)CC2)c(C#N)c2ccccc21	-21	96	101	83
Cc1nn(-c2ccc3nncn3n2)c2c1C(c1cc(F)ccc1F)CC(=O)N2 (stereo not drawn)	-25	98	·	·
FC(F)(F)C1(C(F)(F)F)N=C(c2ccccc2)NC(c2ccccc2)=N1	·	107	121	96
CC(=O)N/N=C/c1ccc(-c2cc(C(F)(F)F)n(C)n2)s1	-111	104	98	90
COc1ccc(OC(=O)c2c(C)nn(-c3ccccc3)c2C)cc1	3	94	99	101
NS(=O)(=O)c1ccc(CCNC(=O)CCc2nnc3c(=O)n(-c4cccc(F)c4)ccn23)cc1	-22	108	·	·
